Bioassay records deposited in PubChem by several laboratories.
rRNA inh HTS: inhibits bacterial ribosomal RNA function over humanized ribosomes; E. coli WT GFP vs humanized-ribosome RFP mutants, fluorescence, 24 h; stronger effect = lower value; DMSO median 0, no signal -100; GFP signal change (wild-type ribosome), % (no concentration beside the values); 1.6% of 350,000 active; AID 720706;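 active means significant combined selectivity score with lowered wild-type GFP, culture density cut under 30%, mutant RFP and density less affected; inactive means any of these conditions unmet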; further: one replicate is shown; some compounds called inactive have numbers as strong as hits
Calb FLC: C. albicans growth modulation with fluconazole. AID 1979. growth inhibition, % (no concentration beside the values). 0.57% of 300,000 active. C. albicans CaCi-2 (fluconazole-resistant clinical isolate) + fluconazole, Alamar Blue growth, 48 h;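 active means most replicates above 75%; inconclusive means exactly half above 75%; inactive means most below 75%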;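 further: all wells also contain fluconazole at 8 µg/ml as a sub-toxic cotreatment; 0% = median of DMSO wells and 100% = median of geldanamycin control wells; wells of about 8 µL received 7.5 nL stock; the first replicate is given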
T cruzi repl: blocks replication of Trypanosoma cruzi. inhibition, % (no concentration beside the values). T. cruzi beta-gal in NIH3T3, luminescence, 90 h. AID 1885. 1.4% of 300,000 active;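 active means mean inhibition across valid replicates above about 55%, limit read from the data; inconclusive means mean below that limit but half or more replicates reach it; inactive means mean below it, under half of replicates reach it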;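 further: signal also drops with host cell toxicity which is not excluded here; 0% = plate median of DMSO wells and 100% = zero luminescence signal; higher percent means less beta-gal luminescence so fewer parasites; stock transfer was 50 nL into about 50 µL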
A1 inh: inhibitors of the anti-apoptotic protein A1, read as caspase activation; MEF A1-2A-BIM cells, Caspase-Glo 3/7 luminescence, 3 h; percent of clofoctol response, vehicle zero; AID 2462; 0.066% of 330,000 active; caspase activation, % (concentration not given with the values);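 active means over half of replicate activation scores above 10%, or exactly half above 10 with the replicate mean above 10; inconclusive means replicate mean below 10 yet half the replicates above 10; inactive means over half of replicates below 10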;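 further: wells of about 30 µL received 50 nL stock; many hits fall short of the cut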
AF4-AF9 inh: inhibitors of human MLL-AF4/AF9 interaction | P42568 | 0.47% of 350,000 active | inhibition, % at 10 µM | AlphaScreen, biotin-AF4 peptide binding to FLAG-AF9;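 active means every replicate reaching a set inhibition limit, whatever the replicate mean, cut at about 25% in these data; inconclusive means mean inhibition reaches that limit but some replicates miss it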;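 further: 0% = plate neutral control median and 100% = total signal loss; the record names both 10 and 1 µM as test concentration; the first replicate is given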
Target sequence (P42568 whole entry, looked up): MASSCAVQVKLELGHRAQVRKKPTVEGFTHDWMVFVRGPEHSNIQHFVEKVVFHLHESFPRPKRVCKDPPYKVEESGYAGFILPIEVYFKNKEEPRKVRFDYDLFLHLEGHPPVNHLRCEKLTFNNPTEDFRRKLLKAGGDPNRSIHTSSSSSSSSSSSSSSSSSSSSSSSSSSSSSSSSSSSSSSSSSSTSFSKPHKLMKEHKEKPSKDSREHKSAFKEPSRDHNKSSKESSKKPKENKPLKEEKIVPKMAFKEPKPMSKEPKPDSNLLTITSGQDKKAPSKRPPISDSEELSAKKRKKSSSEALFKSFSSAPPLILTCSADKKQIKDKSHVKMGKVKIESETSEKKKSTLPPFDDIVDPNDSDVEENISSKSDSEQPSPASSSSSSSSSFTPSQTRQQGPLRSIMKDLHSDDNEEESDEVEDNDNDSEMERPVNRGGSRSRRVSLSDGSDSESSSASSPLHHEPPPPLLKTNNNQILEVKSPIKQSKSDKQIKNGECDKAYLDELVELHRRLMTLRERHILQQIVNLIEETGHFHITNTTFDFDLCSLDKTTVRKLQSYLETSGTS
Vif TR-FRET: HIV-1 Vif–A3G interaction blockers – biochemical, TR-FRET, GST-Vif 1-94, biotin-A3G peptide, dose response retest, primary screen (AID 1117319); TR-FRET GST-Vif / biotin-A3G peptide binding; higher % means a stronger effect; test concentration not given here; strong numbers were not always called active; inhibition, %, or IC50 in µM where a hit was titrated; 0.57% of 260,000 active;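 active means above the screen mean plus three standard deviations and confirmed in dose response; inconclusive means results disagree or hit not tested in dose response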;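 further: Vif residues 1-94 fused to GST binding biotinylated APOBEC3G peptide 110-148; 0% = full assay without inhibitor and 100% = GST in place of GST-Vif; retest series ran down from 100 µM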
Beta cell apopt: blocks beta cell apoptosis; INS-1E cytokine-induced death, ATP luminescence, 48 h; percent of positive-control rescue, neutral wells zero; protection from apoptosis, % (test concentration not listed); 0.8% of 300,000 active; AID 435005;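 active means all replicates at 75% or more, or half of them and the mean; inconclusive means half reach 75% but not the mean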;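 further: 0% = cytokine-treated negative control wells and 100% = positive control rescue; higher means more ATP so stronger rescue from cytokine killing; wells of about 40 µL received 100 nL stock; the first replicate is given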
RanGTP-Imp inh: inhibitors of RanGTP-importin-beta interaction, primary screen, biochemical, FRET, CFP-Ran, YFP-importin-beta, homogeneous; cell-free CFP-Ran/YFP-importin-beta FRET ratio; inhibition, % (test concentration not listed); 1.1% of 300,000 active; AID 2216;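 active means most replicates above 15%; inconclusive means exactly half above 15%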;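 further: 0% = DMSO wells and 100% = Ran loaded with GDP instead of GTP; wells of about 40 µL received 100 nL stock; the first replicate is given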
rRNA inh HTS OD600: recorded beside rRNA inh HTS, whose call it bears; OD600 change, %; measured here: OD600 growth;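 optical density of the mix in the first replicate; 0 = DMSO median and -100 = no signal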
rRNA inh HTS RFP: also measured in rRNA inh HTS; calls as there; RFP signal change, %; measured here: RFP humanized mutant strains;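 first replicate; 0 = DMSO median and -100 = no signal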
* hit, by the source's call; u = inconclusive; x = not tested or not shown.

SMILES	rRNA inh HTS	rRNA inh HTS OD600	rRNA inh HTS RFP	Calb FLC	T cruzi repl	A1 inh	AF4-AF9 inh	Vif TR-FRET	Beta cell apopt	RanGTP-Imp inh
Cc1c2c(nc3nc4ccccc4n13)CCCC2=O	x	x	x	2	-9	x	x	22%	x	-3.2
CN(C)C(=O)c1ccc(NC(=O)CSc2nc3ccccc3[nH]2)cc1	-21*	-13*	1.0*	-15	5	0.4	0.8	x	-4	-0.6
Cn1c(SCc2ccc(C#N)cc2)nnc1-c1ccncc1	11	9	0.4	3	-13	-1.1	-3.2	x	x	-2.7
Cn1c(=O)[nH]c(=O)c2c1nc(Br)n2CC(O)COc1ccccc1 (centres undefined)	2	-8	-3.5	-18	-18	0.7	2.8	0%	-2	-1.9
O=C(/C=C/c1ccc(F)cc1)N1CCc2ccccc2C1	-9	-12	0.1	x	x	-5.2	-26	-1%	3	x
CCS(=O)(=O)N1Cc2ccccc2CC1C(=O)N1CCN(c2ccccc2)CC1 (centres undefined)	-3	3	-1.7	-9	-1	0.7	x	4%	-1	-1.9
N=c1oc2cc(O)ccc2cc1C(=O)Nc1ccc(F)cc1	-20	-7	0.3	-4	-25	-8.0	-0.7	-5%	8	171*
CCCCOc1ccccc1C1NC(=O)NC(C)=C1C(=O)OCCOC (centres undefined)	13	16	-0.7	1	6	1.1	-22	x	0	-1.4
COc1ccc(Br)cc1CNC(=O)CCCc1cn(C)c2ccccc12	0	-19	-5.5	-7	15	0.2	-2.3	12%	-12	-3.1
COc1ccc([N+](=O)[O-])cc1C(=O)C(=O)c1ccccc1	3	10	-0.6	-25	-3	-0.2	2.5	x	-7	2.7
CCOCc1nnc(NC(=O)CS(=O)(=O)c2ccc(C)cc2)s1	0	0	-3.2	23	-7	-0.6	-11	x	-2	-1.8
O=C(CCCc1ccccc1)NCCC1=CCCCC1	-34	-53	-11	-1	-4	1.2	-8.8	u	0	2.9
CC(C)n1c(SCC(=O)N2CCN(C)CC2)nc2c1c(=O)n(C)c(=O)n2C	5	14	-0.9	2	-9	0.6	-3.3	-1%	-4	2.2
CCC(C)NC(=O)c1ccc2nc(Cc3ccc(OC)cc3)oc2c1 (centres undefined)	12	10	-1.8	3	7	-0.4	0.6	-4%	x	0.4
CCOC(=O)c1cnn(-c2nc(OC)cc(OC)n2)c1C(F)(F)F	5	10	5.3	2	-14	0.3	0.9	9%	-7	-1.5
O=c1[nH]c2c(cnn2-c2ccc(Cl)cc2)c(=O)n1-c1cccc(Cl)c1	-35*	-1.6*	-7.0*	-14	5	-1.6	-3.3	x	-4	3.3
CC(NC(=O)CSc1ncccc1C(=O)O)C1CC2CCC1C2 (centres undefined)	-2	3	-0.1	-2	0	0.1	7.1	0%	-11	-1.5
Cc1nc(COC(=O)c2ccc(CO)cc2)cs1	x	x	x	-13	-13	-0.9	x	0%	4	-2.2
CC(C)(C(=O)Nc1nccs1)c1ccccc1	7	6	-0.7	15	9	-0.1	-0.5	-9%	-5	-0.2
Cc1cc(C)cc(OCc2nnc(SCC(=O)c3ccccc3)o2)c1	x	x	x	-9	50	-0.3	x	-4%	-5	-6.2
Cc1nn(C)c(C)c1CCC(=O)N1CCCC(C(=O)c2cccc(OC(C)C)c2)C1 (centres undefined)	-1	-6	-2.4	-2	7	-0.2	-1.1	x	1	0.2
Cc1cc(C)nc(SCCCNCc2ccc(Br)cc2)n1	2	0	-2.1	-12	40	-1.4	0.0	15%	x	-6.5
CCc1ccc(NC(=O)c2ccc(F)c(S(=O)(=O)N(CC)c3ccccc3)c2)cc1	x	x	x	-4	22	0.7	x	x	x	-2.4
CN(CC(=O)Nc1ccccc1C(F)(F)F)C(=O)C1=COCCO1	2	4	0.0	2	8	0.0	-2.9	1%	-4	-2.6
O=C(CN1CCN(c2ccccc2O)CC1)Nc1ccc2c(c1)CCC2	x	x	x	4	4	-0.8	x	51µM*	3	1.8

More structures follow:
SMILES	rRNA inh HTS	rRNA inh HTS OD600	rRNA inh HTS RFP	Calb FLC	T cruzi repl	A1 inh	AF4-AF9 inh	Vif TR-FRET	Beta cell apopt	RanGTP-Imp inh
O=C(CSc1c[nH]c2ccccc12)NCC1CCCO1 (centres undefined)	4	8	0.9	0	-2	0.4	4.4	0%	0	3.9
COC(=O)C(C)Oc1ccc(Cl)c(CN2OCC(C)(C)C2=O)c1 (centres undefined)	2	5	-0.8	-1	4	-0.2	0.5	x	x	0.2
S=C(Nc1ccccc1Cl)N1CCCC(c2ccccc2)=N1	-1	12	12	-6	36	0.6	3.6	5%	-3	1.4
N#Cc1cnc(Nc2ccc(F)cc2)nc1N	7	12	-0.9	-4	-10	-3.3	0.2	-5%	1	3.1
COc1ccc(S(=O)(=O)N2CCN(Cc3cc(OC)c(OC)c(OC)c3)CC2)cc1	-5	-4	-0.9	22	-8	0.0	4.5	x	1	4.9
CS(=O)(=O)Nc1cccc(C2=NN(C(=O)c3ccco3)C(c3ccco3)C2)c1 (centres undefined)	-7	-16	3.0	-3	-15	-0.3	5.7	-3%	3	8.0
O=C(Nc1cccc(Cl)c1)C1CCCCC1	11	1	-6.6	x	x	-0.6	-3.5	x	-6	x
COCc1cc(=O)[nH]c(/N=C(\N)Nc2ccc(Cl)c(Cl)c2)n1	4	14	-2.0	4	-10	0.2	0.0	-8%	-11	0.9
Cc1cc(N/C=C(\C#N)S(=O)(=O)c2ccccc2Cl)nc(C)n1	-7	-8	4.7	-1	3	0.5	x	-7%	-9	0.5
COCCn1c(N)c(C(=O)OCc2ccccc2)c2nc3ccccc3nc21	x	x	x	14	4	0.2	x	0%	5	18*
COc1ccc(NC(=O)CC(c2ccc(F)cc2)c2ccc(OC(C)C)cc2)cc1 (centres undefined)	-5	-3	-0.3	-6	4	-0.3	-0.4	-8%	6	5.4
O=C(CCCOc1ccc(Cl)cc1)Nc1ccc(N2CCOCC2)cc1	4	12	-1.8	-17	u	-0.6	2.4	x	1	-2.7
COc1ccc(C(=O)ON=C2C=C(C)C(=O)C(C)=C2)cc1	x	x	x	29	32	0.0	x	x	-16	2.5
CN(CC(=O)O/N=C(\N)c1cccc([N+](=O)[O-])c1)S(=O)(=O)c1ccccc1	x	x	x	-9	-2	0.6	x	5%	-4	2.0
O=C(CN1C(=O)c2ccccc2S1(=O)=O)NCCSC1CCCCC1	x	x	x	-7	-8	-0.3	x	u	3	2.3
CCCCOCP(=O)(CCCC)COCCCC	x	x	x	0	-7	0.3	x	-2%	3	0.0
CCc1cc(OCCCSc2nc(C)cc(=O)[nH]2)ccc1Cl	x	x	x	-5	9	1.0	x	17%	-7	u
CCCc1cc(=O)c2c(O)ccc(OC)c2o1	-4	-8	1.3	-4	9	-1.0	-2.7	-4%	-7	-1.2
COc1ccc(-c2noc(CN(C)C(=O)c3ccc4c(c3)OCO4)n2)cc1	0	-20	0.7	14	6	0.2	-2.1	x	-2	1.5
O=C(OCc1ccco1)c1cccnc1	7	3	-1.1	-7	3	0.2	1.2	-2%	-6	-1.8
CCCn1c(N)c(C(=O)CN(C)CC(=O)Nc2ccccc2CC)c(=O)[nH]c1=O	12	14	3.4	x	x	0.2	0.9	-6%	2	x
CN(C)/C=C(/C(=O)c1ccc(Cl)c(Cl)c1)c1nnnn1-c1ccccc1	-40	-76	8.0	-1	4	0.0	1.3	4%	-3	-0.4
N#C/C(=C/c1cccc(C(F)(F)F)c1)c1nc(CCN2C(=O)c3ccccc3C2=O)cs1	x	x	x	6	-10	-0.6	x	-3%	x	-1.1
N=C1C(c2ccccc2)=C(O)CN1c1ccc2c(c1)OCO2	3	8	-0.3	-17	-1	1.4	0.0	7%	3	5.6
O=C(NCc1ccco1)c1noc2c1CCCC2	x	x	x	4	1	-0.5	x	11%	-4	1.9

Next section
SMILES	rRNA inh HTS	rRNA inh HTS OD600	rRNA inh HTS RFP	Calb FLC	T cruzi repl	A1 inh	AF4-AF9 inh	Vif TR-FRET	Beta cell apopt	RanGTP-Imp inh
COc1ccccc1CNC(=O)[C@@H](NC(=O)C1CCN(C(=O)[C@@H]2CCCN2)CC1)C(C)C	x	x	x	-6	-5	1.5	-0.6	x	-5	3.7
Cc1cc(Nc2c(C#N)c(N)nn2C)ccc1F	5	8	0.1	-11	4	-0.9	-0.8	14%	-5	-4.3
Cc1cccc(NC(=O)CCNC(=O)c2ccccc2)c1	6	9	5.7	-7	-7	-0.6	-0.3	x	-5	1.4
COc1ccc(C(=O)N(Cc2sccc2C)C2CCS(=O)(=O)C2)cc1 (centres undefined)	-2	-2	2.0	1	-9	1.4	-3.8	x	-1	1.1
Cc1ccc(C(=O)Oc2ccc(-c3nccc(-c4ccccn4)n3)cc2)cc1	x	x	x	-4	-6	0.3	x	-3%	-25	0.0
CC(C)(C)NC(=O)c1nn(Cc2ccccc2)c(=O)c2ccccc12	-38	-51	-17	-12	-6	0.4	-3.5	-3%	-2	u
Cc1c(C)c2cc(Cl)c(OC(C)C(=O)NCCN3CCOCC3)cc2oc1=O (centres undefined)	8	3	2.6	-3	13	0.3	-0.5	x	-7	4.9
CC(=O)N1CCc2cc(S(=O)(=O)CCC(=O)NCc3cccs3)ccc21	x	x	x	0	-1	0.7	x	-5%	-4	2.0
COc1ccc(-c2nc(C#N)c(N3CCC(C(N)=O)CC3)o2)cc1OC	x	x	x	2	-14	0.2	x	-3%	3	u
CCn1ncc(N(C)N)c(Cl)c1=O	15	6	-0.7	-18	-9	0.5	0.4	6%	-6	0.8
COc1cc(C(=O)Oc2ccccc2)ccc1OCc1c(C)noc1C	x	x	x	-4	0	0.5	x	1%	x	4.3
COc1ccc(S(=O)(=O)N2CCC(C(=O)Nc3cccc(C(C)=O)c3)CC2)cc1	x	x	x	-3	13	0.8	x	-2%	-2	0.1
CSc1ccc(C(=O)C2CCCN(C(=O)c3ccc4c(c3)no[n+]4[O-])C2)cc1 (centres undefined)	0	-6	-5.9	0	20	-0.9	6.2	-3%	-3	-1.2
N[C@@H](Cc1ccc(O)c(I)c1)C(=O)O	x	x	x	-10	-22	-0.7	x	24%	-5	0.8
O=C(CC1SC(=NCC2CCCO2)NC1=O)Nc1cc([N+](=O)[O-])ccc1Cl (centres undefined)	-2	-6	-3.7	-3	-16	0.5	-3.9	-3%	-34	-1.5
Cc1ccccc1C(OCCN(C(C)C)C(C)C)c1ccccc1 (centres undefined)	12	-1	0.4	-28	26	0.3	7.3	-5%	-6	-2.0
CC(C)[C@H](NC(=O)C1CCN(S(=O)(=O)c2ccc(F)cc2)CC1)C(=O)N1CCCC1	2	9	0.0	-1	-11	0.1	-22	x	-12	-0.1

These rows are one share of the data (hit frequency here may not be typical).
